# Six1-Eya2 blk: qHTS Assay for Inhibitors of the Six1/Eya2 Interaction; Homeobox protein SIX1 (Homo sapiens) + Protein phosphatase EYA2 (Homo sapiens), …; AlphaScreen GST-Six1/His-Eya2 binding, biochemical; active compounds read low; control for the full effect not named in the record; activity change, % (no concentration beside the values); hit rate 0.56% among 360,000; AID 651725, 2012; in the data active = activity change below about -65%; inconclusive = about -30% to -65%; inactive = above about -30%; also: % is scaled to controls: 0 for no effect and ±100 for the full control effect
#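 AlphaScreen with GST-Six1 and His-Eya2 (5X mix: 250 nM and 500 nM), glutathione donor and nickel acceptor beads; buffer 50 mM Tris pH 8.0, 300 mM NaCl, 1 mM TCEP; 1 h at 37 C in the dark.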
# D2 PAM: Beta-Arrestin HTS for Positive Allosteric Modulators of the Human D2 Dopamine Receptor: Potentiators; D(2) dopamine receptor (Homo sapiens), P14416; DiscoveRx D2 beta-arrestin cells, luminescence, 90 min; 100% = 57 uM dopamine signal; potentiation, % (concentration not given with the values); hit rate 0.23% among 360,000; AID 624464, 2012; active = potentiation of 50% or more; inconclusive = 30% to 50%; inactive = 30% or less;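 also: compound concentration not given in the record; tested on top of an EC20 dose of dopamine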
# Target sequence (P14416 whole entry, looked up): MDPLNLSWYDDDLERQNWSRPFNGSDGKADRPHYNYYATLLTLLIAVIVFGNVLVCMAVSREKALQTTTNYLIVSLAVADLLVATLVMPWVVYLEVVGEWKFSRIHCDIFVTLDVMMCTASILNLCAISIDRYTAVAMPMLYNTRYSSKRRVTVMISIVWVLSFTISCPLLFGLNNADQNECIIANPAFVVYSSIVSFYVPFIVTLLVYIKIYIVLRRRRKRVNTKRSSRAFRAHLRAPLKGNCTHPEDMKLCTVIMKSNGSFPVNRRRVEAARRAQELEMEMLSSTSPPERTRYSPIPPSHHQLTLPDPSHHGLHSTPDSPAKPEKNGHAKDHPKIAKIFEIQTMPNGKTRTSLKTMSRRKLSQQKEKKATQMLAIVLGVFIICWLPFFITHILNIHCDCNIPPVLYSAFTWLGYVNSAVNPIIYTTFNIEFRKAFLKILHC
#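 PathHunter beta-arrestin assay in DiscoveRx D2 cells. Compounds were added with an EC20 of dopamine (50 nM final) for 90 min at 37 deg C. Luminescence was read 1 h after detection reagent, with 57 uM dopamine as the EC100 control.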
# TRPML1 inh: qHTS for Inhibitors of the Human Mucolipin Transient Receptor Potential 1 (TRPML1); Mucolipin-1 (Homo sapiens), Q9GZU1; activity change, negative = inhibition, % (no concentration beside the values); TRPML1-inducible cells, Ca2+ dye fluorescence, FDSS; active compounds read low; inhibition of EC80 agonist-evoked calcium signal; hit rate 0.02% among 390,000; in the data active means activity change below about -50%; inconclusive means about -30% to -50%; inactive means above about -30%;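 also: stimulus is agonist 54-4 at its EC80 concentration; % is scaled to controls: 0 for no effect and ±100 for the full control effect; compound concentration not given in the record; the text of the record puts the active cut at -80%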
# Target sequence (Q9GZU1 whole entry, looked up): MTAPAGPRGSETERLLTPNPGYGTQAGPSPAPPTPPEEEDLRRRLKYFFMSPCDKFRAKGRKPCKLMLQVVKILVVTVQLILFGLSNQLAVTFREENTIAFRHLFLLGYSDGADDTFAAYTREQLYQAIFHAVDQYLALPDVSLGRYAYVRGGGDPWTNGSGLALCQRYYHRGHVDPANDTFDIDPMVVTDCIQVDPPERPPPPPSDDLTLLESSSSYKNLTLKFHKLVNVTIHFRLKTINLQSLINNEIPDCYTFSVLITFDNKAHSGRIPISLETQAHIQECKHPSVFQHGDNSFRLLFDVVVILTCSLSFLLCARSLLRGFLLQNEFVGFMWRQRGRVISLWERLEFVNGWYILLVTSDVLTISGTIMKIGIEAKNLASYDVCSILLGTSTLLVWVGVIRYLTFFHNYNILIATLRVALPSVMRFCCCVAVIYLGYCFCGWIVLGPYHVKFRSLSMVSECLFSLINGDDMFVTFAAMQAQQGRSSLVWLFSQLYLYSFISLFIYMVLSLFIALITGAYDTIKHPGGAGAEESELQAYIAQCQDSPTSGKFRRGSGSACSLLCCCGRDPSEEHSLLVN
#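 Calcium fluorescence in TRPML1-DL cells induced overnight with Tet: a 110 s read after compound pin addition, then a 110 s antagonist read after challenge with 54-4 at 4 uM final (EC80).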
# TRPV1 PAM: HTS Assay for Compounds that Act as Potentiators of the Vanilloid Receptor 1; TRPV1-expressing cells, Fluo-8 calcium influx, capsaicin EC20 potentiation; host cell line not named in the record; control for the full effect not named in the record; potentiation, % at 8.33 µM; hit rate 0.02% among 320,000; AID 540277, 2011; active means potentiation above 80%; inconclusive means 30% to 80%; inactive means below 30%; also: 0% is about no effect
#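 Cells expressing TRPV1 were dye-loaded with Fluo-8 and read kinetically: 10 s baseline, 3 min after compound (agonist portion), then 2 min after EC20 capsaicin (allosteric enhancer portion). Calcium-bound dye fluorescence at 480/520 nm.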
# CtBP-E1A inh: qHTS Assay for Inhibitors of the CtBP/E1A Interaction; AID 651724, 2012; CtBP / adenovirus E1A interaction (AlphaScreen); activity change, % (no concentration beside the values); AlphaScreen GST-E1A/His-CtBP binding, 1536-well; active compounds read low; control for the full effect not named in the record; hit rate 0.49% among 340,000; in the data active means activity change below about -65%; inconclusive means about -30% to -65%; inactive means above about -30%; also: % is scaled to controls: 0 for no effect and ±100 for the full control effect
#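 Protein mix (5X: 125 nM each GST-E1A, His-CtBP) was incubated with pinned compound 2 h at 37 deg C in dark, in 50 mM Tris pH 8.0 buffer with 300 mM NaCl. Glutathione donor and nickel acceptor beads followed; AlphaScreen signal read after 1 h.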
# TRPML1 ag: qHTS for Agonists of the Human Mucolipin Transient Receptor Potential 1 (TRPML1); Mucolipin-1 (Homo sapiens), Q9GZU1; hit rate 0.12% among 410,000; activation, % (concentration not given with the values); TRPML1-expressing cells, Ca2+ dye fluorescence, FDSS; host cell line not named in the record; reference of the full effect not given here; in the data active = activation above about 50%; inconclusive = about 30% to 50%; inactive = below about 30%; also: 0% is about no effect; the text of the record puts the active cut at 80%
#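 Agonist activity was taken from a 110 s kinetic Ca2+ dye read on the FDSS after pinning compounds onto TRPML1-DL cells. The cells were seeded at 1,500/well with Tet inducer, incubated about 16 h, then dye-loaded at room temperature.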
# Numbers without * were called inactive; ? = inconclusive; · = no result given; & = joins results of further samples.
SMILES,Six1-Eya2 blk,D2 PAM,TRPML1 inh,TRPV1 PAM,CtBP-E1A inh,TRPML1 ag
Cc1ccc(Oc2ccccc2/C=N/O)cc1,8,3,16,9,1,1.3
CCCc1nn(C)c(C(=O)Nc2ccc3ccccc3c2)c1Cl,4,-14,74,-6,-10,-0.1
CC1CCN(C(=O)C(=O)Nc2sc3c(c2C(N)=O)CC(C)(C)OC3)CC1,-1,-3,-2,5,2,0.1
CCOc1ccc(CCNC(=O)COC(=O)c2cccc(S(=O)(=O)N3CCOCC3)c2)cc1OCC,-1,-3,18,4,-5,1.0
CCC(CC)NC(=O)c1ccc(NS(=O)(=O)c2ccc3[nH]c(=O)[nH]c3c2)cc1,1,12,7,27,2,-0.1
CN(CC(=O)Nc1ccc(F)c(F)c1F)C(=O)c1ccc(-n2cncn2)c([N+](=O)[O-])c1,0,24,-10,2,-1,-1.0
CCN1CCN(C(=O)c2cc(-c3ccco3)nc3ccccc23)CC1,-10,-1,?,-2,-4,-0.2
C=CCn1c(SCC(=O)NCc2ccccc2)nnc1C1CCCCC1,1,-13,9,-7,0,-1.1
O=C1CCS/C(=N\N=C\c2ccc(Cl)cc2Cl)N1,-1,-1,-6,5,-5,2.2
O=C(COC(=O)c1nc(Cl)ccc1Cl)c1ccc[nH]1,-5,-17,6,-3,2,0.5
CCOC(=O)N1CCN(C(=O)c2cc3c(=O)n4ccccc4nc3s2)CC1,1,-7,3,-1,1,0.3
Cc1ccc(-c2nnc(N)s2)cc1,0,-13,-6,8,15,-0.9
O=C(CCCSc1nc2sc3c(c2c(=O)[nH]1)CCC3)NCCCO,-2,-11,-13,14,?,-0.2
Cc1c(Cl)cccc1NC(=O)c1ccc(-n2ccnc2)nc1,-1,-5,-1,-16,3,1.0
CC(=Nc1ccc(C)cc1)c1sc2ccccc2c1O,-10,21,2,20,-18,-0.3
CSc1ccc(Cl)c(C(=O)NCCOc2cc(C(C)C)ccc2C)c1,13,-8,24,-1,4,3.3
CCn1nccc1C(=O)Nc1ccc(C(=O)OC(C)C)cc1,-2,2,4,-10,4,0.1
Cc1ccc(OCC(=O)NCCNC(=O)COc2ccc(C)cc2)cc1,21,-2,-1,-1,7,2.1
C=CCC(=O)N1CCCC(CNC(=O)c2ccc(-c3ccccc3)cc2)C1 (stereo not given),-5,-7,26,?,6,0.3
CC(=O)c1ccc(NC(=O)[C@@H]2CCCN2C2=NS(=O)(=O)c3ccccc32)cc1,5,-3,-1,1,9,-0.7
Cc1cccc(COCCN2CCN(S(=O)(=O)c3ccccc3)CCC2=O)c1,0,-8,-7,-2,0,-0.6
O=[N+]([O-])c1ccccc1-n1cnc2ccccc21,-11,0,25,8,-11,1.2
O=C(CCNC(=O)C1CCN(S(=O)(=O)c2ccc(F)cc2)CC1)NCc1ccc(Cl)cc1,32,-19,10,-2,·,0.1
CCN(CC)S(=O)(=O)c1ccc2[nH]c(=O)[nH]c2c1,-9,1,19,1,-12,0.5
CC#CCN(Cc1ccco1)C(=O)C1CCC(=O)N(Cc2ccccc2F)C1 (stereo not given),-5,-13,0,9,-1,0.2
COC(=O)C1=C(C)N(c2cccc(OC)c2)C(=O)/C1=C\c1ccco1,-11,-3,12,-10,2,0.4
CCCCc1c(C)c2ccc(OCC(C)=O)cc2oc1=O,-8,-13,11,-4,-2,2.1
Cc1cc(C)c2c(N)c(C(=O)c3cccc(Cl)c3)sc2n1,-3,-23,14,0,-6,0.8
COc1ccc(OC)c(CNC(=O)COc2cc(=O)n(C)c3ccccc23)c1,-3,-6,0,·,-3,-1.0
O=C(CN1C(=O)c2cccc3cccc1c23)NCC1CCCO1 (stereo not given),0,-9,-2,-13,4,0.1

# Three entries drawn at random from those above:
SMILES,Six1-Eya2 blk,D2 PAM,TRPML1 inh,TRPV1 PAM,CtBP-E1A inh,TRPML1 ag
CSc1ccc(Cl)c(C(=O)NCCOc2cc(C(C)C)ccc2C)c1,13,-8,24,-1,4,3.3
CC1CCN(C(=O)C(=O)Nc2sc3c(c2C(N)=O)CC(C)(C)OC3)CC1,-1,-3,-2,5,2,0.1
Cc1ccc(OCC(=O)NCCNC(=O)COc2ccc(C)cc2)cc1,21,-2,-1,-1,7,2.1

# Going on with the list:
SMILES,Six1-Eya2 blk,D2 PAM,TRPML1 inh,TRPV1 PAM,CtBP-E1A inh,TRPML1 ag
O=C(CN1CCC(n2nnc3cc(C(F)(F)F)ccc32)CC1)N1CCc2ccccc21,8,-16,6,-5,8,0.8
C=CCn1c(SCC(=O)Nc2ccc3c(c2)OCCO3)nc2cc(C(=O)O)ccc2c1=O,1,-6,-7,-9,-4,0.1
O=C(c1cccs1)N1C[C@@H](n2cc(C3CC3)nn2)[C@H](O)C[C@@H]1c1ccccc1,2,-2,15,·,3,0.0
COc1ccc(OC)c(NC(=O)Nc2nc(C(C)N)cs2)c1 (stereo not given),-27,-16,·,·,?,-0.5
COc1cc(OC)c(C(=O)OCC(=O)Nc2ccc(N3CCOCC3)cc2)cc1OC,-13,-3,16,·,2,2.4
CCc1ccc(NC(=O)CS(=O)CC(=O)Nc2ccc(-n3cnnn3)c(C)c2)cc1 (stereo not given),-10,-3,11,11,-15,-0.7
CCCn1c(=S)[nH]c2cc(C(=O)N3CCN(C)CC3)ccc2c1=O,0,-10,4,·,6,-0.3
C[C@H](CO)NC(=O)[C@H](C)[C@H]1C[C@]1(C)[C@H](NC(=O)OCc1ccccc1)c1ccccc1,2,-33,17,4,2,-0.2
CC(C)C[C@H]1CN=C(N(C)C)N1CCc1cccc(F)c1,5,-13,-17,·,-9,-0.1
CC(CN1CCOCC1)OC(=O)c1ccc2c(c1)OCCO2 (stereo not given),3,-27,12,-7,0,-0.7
CCN(CCO)C(=O)C(c1ccccc1)c1ccccc1,12,-4,7,-2,1,1.5
O=C(CCCc1ccccc1)Nc1ccc(S(=O)(=O)N2CCOCC2)cc1,-1,-4,-8,-1,3,-0.3
CCc1ccc(S(=O)(=O)/N=C2/C=C(Sc3ncn[nH]3)C(=O)c3ccccc32)cc1,-11,22,1,13,0,0.4
C#CCNC(=O)C1=C[C@H](c2ccc(Br)cc2)C[C@H](OCc2ccc(CO)cc2)O1,-4,16,-5,-5,2,-1.0
Cc1ccc(/C=C/C(=O)N2CC(C)CC(C)C2)o1 (stereo not given),-3,-17,3,-12,-4,1.9

# Continued, overlapping the part above by two compounds.
SMILES,Six1-Eya2 blk,D2 PAM,TRPML1 inh,TRPV1 PAM,CtBP-E1A inh,TRPML1 ag
C#CCNC(=O)C1=C[C@H](c2ccc(Br)cc2)C[C@H](OCc2ccc(CO)cc2)O1,-4,16,-5,-5,2,-1.0
Cc1ccc(/C=C/C(=O)N2CC(C)CC(C)C2)o1 (stereo not given),-3,-17,3,-12,-4,1.9
CN(C)S(=O)(=O)Nc1cccc(Br)c1,1,-8,·,4&4,1,·
Cc1cccc(S(=O)(=O)N(C)C[C@H]2OCc3cn(nn3)CCCC(=O)N([C@H](C)CO)C[C@@H]2C)c1,0,3,4,·,1,-0.6
CCN(CC(=O)Nc1ccccc1C(F)(F)F)C(=O)c1ccc2c(c1)NC(=O)CS2,5,-4,17,-4,5,-0.2
CNC(=O)[C@@H]1C[C@H]1[C@@H](NC(=O)OCc1ccccc1)c1ccccc1,-2,9,-10,-13,·,-0.3
CN(CCc1ccccc1)C(=O)c1ccc(NC(=O)Cc2cccc(NC(=O)C3CCN(S(=O)(=O)c4cccc([N+](=O)[O-])c4)CC3)c2)cc1,-2,5,22,·,0,-0.5
CCOc1ccccc1CNC(CC)CO (stereo not given),6,-4,-2,1,2,2.0
Cc1ccc(OCCn2cc(/C=N/NC(=O)c3ccncc3)c3ccccc32)cc1,-15,-9,50,11,-24,-0.8
CC(C)[C@H](NC(=O)C1CCN(S(=O)(=O)c2ccc(F)cc2)CC1)C(=O)N1CCCC1,7,-3,1,23,5,-0.1
CCOc1nc(C)ccc1-c1noc(-c2ccncc2)n1,5,-14,-1,2,-1,0.9
O[C@H]1CN(Cc2cccs2)[C@@H](c2ccccc2)C[C@@H]1n1cc(-c2ccc(F)cc2)nn1,-4,2,16,·,1,0.4
CCOC(=O)C1CCCCN1C(=O)CCc1c(C)nc2cc(-c3ccccc3)nn2c1C (stereo not given),-1,-2,2,-11,5,0.0
COc1ccc(NC(=O)CN(C)C(=O)c2cc(C)oc2C)cc1,-1,-13,-2,·,-8,-0.8
COc1cccc(NC(=O)N2CCc3nc(Nc4ccc(C(C)C)cc4)ncc3C2)c1,-11,-9,·,·,-2,-0.7
O=c1[nH]c(SCc2ccc(Cl)cc2)nc2c1CCC2,-1,2,18,17,1,1.4
COC1=CC(=O)CC(C)C12Oc1c(Cl)c(OC)cc(OC)c1C2=O (stereo not given),-2,-9,16,4,-8,0.5
C=CCNC(=O)CSc1nc2cc(C(=O)OCC)ccc2n1CC,0,-7,4,19,-1,1.0
CCOc1c(Br)cc(C(=O)N2CCCN(C)CC2)cc1OC,4,2,10,4,6,2.9
O=C(NCc1ccncc1)c1cnccn1,4,21,7,14,3,-0.7
O=C1OC(c2ccc(Br)cc2)=N/C1=C\c1ccco1,1,-3,11,0,6,-0.7
COc1ccccc1N1CCN(C2CCCN(S(=O)(=O)c3ccccc3)C2)CC1 (stereo not given),-1,-44,27,-7,-4,1.9
Cn1c(CNc2nc(-c3ccccc3)cs2)nnc1SCC(=O)N1CCc2ccccc21,?,-11,-24,6,?,2.5
CN1CCN(C(=O)C2CCC(=O)N(CCc3cccc(F)c3)C2)CC1 (stereo not given),4,-6,2,4,-4,0.5
Cc1ccc(CSCC(=O)N2CCN(c3ccccc3)CC2)cc1,1,-6,26,-14,1,0.3
Cc1ccc2c(C)c(C(=O)N3CCN(c4ccncc4)CC3)oc2c1C,-18,-14,0,·,0,0.2
O=c1c2ccccc2ncn1-c1ccccc1C(F)(F)F,-1,-4,17,10,·,0.5
N#C/C(=C/c1cn(-c2ccccc2)nc1-c1cccc(S(=O)(=O)N2CCOCC2)c1)C(=O)NCc1ccco1,4,5,-1,-1,2,-0.4
CCc1cc(=O)oc2cc(OC(C)C(=O)O)c(Cl)cc12 (stereo not given),6,10,2,6,3,-0.8
CCOC(=O)c1ccc(N2C(=O)CC(Sc3nc(C)cc(C)n3)C2=O)cc1 (stereo not given),-2,26,·,-3,·,·
O=C(NC(=S)Nc1ccc2[nH]c(=O)[nH]c2c1)c1cncc(Br)c1,-5,-3,0,3,-8,-0.9
CC(=O)Nc1ccc(S(=O)(=O)N2CCN(c3ncccn3)CC2)cc1,-2,-2,12,-7,9,0.1
CC(C)c1cccc(-c2csc(C(O)c3ccco3)n2)c1 (stereo not given),-12,0,2,·,1,-0.2
CCc1ccccc1NC(=O)CC(O)(C(=O)OC)C(F)(F)F (stereo not given),2,0,-10,13,4,0.1

# Screens deposited in PubChem by National Center for Advancing Translational Sciences (NCATS).
